PABP FP inh = PABP-poly(A) binding inhibition; P11940; hit rate 1% among 290,000; inhibition, % at 35 µM; PABP-poly(A) RNA binding, fluorescence polarization;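 active = 50% or more with normal probe brightness, or confirmed in later tests; inconclusive = above 50% with abnormal brightness, or retests that disagree; inactive = below 50% or failed in later tests; about a fifth of its hits are not listed in these tables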;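 note: calls also rest on retests at 20 µM and on dose response follow-up; controls were probe without protein and protein plus probe with vehicle; some compounds called inactive have numbers as strong as hits; many hits fall short of the cut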
Target sequence (P11940 whole entry, looked up): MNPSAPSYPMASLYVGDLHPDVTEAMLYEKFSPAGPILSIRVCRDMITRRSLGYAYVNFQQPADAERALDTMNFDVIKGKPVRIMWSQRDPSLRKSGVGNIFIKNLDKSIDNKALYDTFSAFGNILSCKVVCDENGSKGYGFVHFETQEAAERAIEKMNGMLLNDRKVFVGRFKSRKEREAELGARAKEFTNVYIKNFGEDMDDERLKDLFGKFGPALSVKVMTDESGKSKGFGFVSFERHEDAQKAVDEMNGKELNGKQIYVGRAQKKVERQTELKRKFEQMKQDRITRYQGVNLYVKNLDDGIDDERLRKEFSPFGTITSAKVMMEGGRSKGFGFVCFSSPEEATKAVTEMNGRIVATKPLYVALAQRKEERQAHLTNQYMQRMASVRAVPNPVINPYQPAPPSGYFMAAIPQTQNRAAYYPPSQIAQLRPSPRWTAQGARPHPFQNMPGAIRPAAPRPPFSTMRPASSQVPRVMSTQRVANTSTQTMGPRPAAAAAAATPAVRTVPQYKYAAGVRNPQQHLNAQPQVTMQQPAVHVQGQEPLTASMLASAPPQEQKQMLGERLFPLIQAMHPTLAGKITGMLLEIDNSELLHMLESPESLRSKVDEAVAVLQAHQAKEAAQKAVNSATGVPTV
CSC inhib = cancer stem cell inhibition; cancer stem cell-like cells viability, luminescence; AID 2717; hit rate 1.1% among 300,000; inhibition, % at 7.5 µM;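 active = mean at 75% or more and at least half the replicates too; inconclusive = mean and replicates disagree; tested in HMLE shEcad cells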;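 note: 0% = median of negative and 100% = median of positive control wells; the first replicate is given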
MT1-MMP act inh = inhibitors of human MT1-MMP activation; AID 651647; GFP/RFP ratio change, % at 20 µM; HT1080 RFP-PRO-GFP cells, GFP/RFP ratio fluorescence, overnight; percent of plate control window, DMSO zero; hit rate 0.061% among 360,000;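 active = GFP/RFP ratio change of at least 30% with cell ATP level not reduced by more than half and red fluorescence within 50% of control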; note: strong numbers were not always called active
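Test system: HT1080 cells expressing an RFP-PRO-GFP fluorescent reporter construct / Compound dosing: single-point 20 µM compound, 1% DMSO / Schedule: cells overnight before dosing, compound overnight, 37 °C, 5% CO2 / Evaluation: GFP/RFP fluorescence ratio / Control set: DMSO and RFP-L50D-GFP cell wells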
HIV Env fusion = inhibitors of HIV Env-mediated cell fusion | HeLa-JRFL Env/CEM21 cell fusion, luciferase | hit rate 1.1% among 360,000 | inhibition, % at 12.3 µM;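 active = mean replicate inhibition score of at least 50 and every replicate individually at or above 50; inconclusive = only one of the two criteria met; inactive = mean below 50 and not all replicates reaching 50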;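 note: 0% = plate neutral controls and 100% = maraviroc near 300 nM; one replicate is shown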
Rce1 inh = inhibitors of yeast Ras-converting enzyme; Q03530; hit rate 0.27% among 290,000; yeast membranes, quenched prenylated peptide cleavage fluorescence; calls only; AID 2563;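 active = fall in fluorescence gain of 50% or more versus controls, with final raw signal at or below 3038400; inconclusive = same 50% fall but final raw signal above 3038400; inactive = fall in fluorescence gain under 50%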;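 note: plate controls were neutral control wells for no effect and wells lacking membranes for full effect; tested at 10 µM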
UUG fidelity = yeast start codon fidelity modulation. S. cerevisiae UUG-firefly luciferase reporter, luminescence/redox ratio. activity score, % at 18.7 µM. hit rate 0.13% among 350,000;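 active = replicate mean at a twofold rise or more, about +100% in these data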;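 note: firefly luciferase made from a UUG start codon reports start codon fidelity; reporter light over untreated wells divided by growth signal over untreated wells; some hits fall short of that in this replicate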
eIF4H inh = inhibitors of RNA binding by human eIF4H; inhibition, % at 35 µM; eIF4H fluorescence polarization binding assay; hit rate 0.94% among 290,000; Q15056;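 active = 50% or more with normal probe brightness, or confirmed in later tests; inconclusive = above 50% with abnormal brightness, or retests that disagree; inactive = below 50% or failed in later tests; about a fifth of its hits are not listed in these tables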;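 note: calls also rest on retests at 20 µM and on dose response follow-up; 0% = protein and probe with vehicle and 100% = probe without protein; strong numbers were not always called active; many hits fall short of the cut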
eIF4H inh retest = further read-out of eIF4H inh, marked with its call; inhibition, %; compound at 20 µM; confirmation average;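 mean of two retest wells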
PABP FP inh retest = second read-out of PABP FP inh, no call of its own (marks repeat the call); inhibition, %; compound at 20 µM; confirmation repeats;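 mean of two retest wells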
MT1-MMP act inh RFP = second read-out of MT1-MMP act inh, no call of its own (marks repeat the call); RFP signal change, %; measured here: RFP expression control read;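 0 = vehicle wells; hits needed this value within 50% of zero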
* marks the source's active call; other numbers are inactive results; i = inactive; ? = inconclusive; / = not tested or not shown; & = joins results of further samples; [ ] = another dose, or the depositor's remark. Some of the compounds tested; the hit share may differ from the screen's.

SMILES	PABP FP inh	CSC inhib	MT1-MMP act inh	MT1-MMP act inh RFP	HIV Env fusion	Rce1 inh	UUG fidelity	eIF4H inh	others
C#CCOCCOCCOCCNc1nc(N2CCN(C(=O)[C@H](CCC(=O)O)n3cc(C(N)CO)nn3)CC2)nc(N2CCN(C(=O)[C@H](Cc3cc4ccccc4[nH]3)n3cc(C(N)[C@H](C)CC)nn3)CC2)n1 (some centres undefined)	-3.6	-11.3	0.7	-0.7	/	i	13.6	8.9
CC(C)(C)[C@@H]1CCC(=O)N(CC[C@H](Sc2ccc(Br)cc2)c2ccccc2)CC1	/	107.6*	-5.7	-16.1	67.0*	/	-14.5	/
CCOc1cc(CN2CCCC(CO)(Cc3ccc(F)cc3F)C2)ccc1OC (centres undefined)	4.9	3.5	1.8	6.5	-10.5	i	-7.0	3.6
CCCCCCSc1ccc(-c2nc3ccc(C)cn3c2NCc2ccccc2)cc1OC	/	68.8	-1.8&8.0	-17.3&-22.0	34.0	i	-32.2	/
COC(=O)c1cccc(N2C(=O)c3cccnc3C2=O)c1	7.8	-9.0	3.0	7.0	/	/	-9.4	14.3
O=C(CSc1nc2ccccc2c(=O)n1-c1ccc(F)cc1F)Nc1ccc(N2CCOCC2)cc1	11.4	3.0	-4.1	-6.6	25.7	i	13.1	-1.7
Cc1ccc(S(=O)(=O)n2nc(C)c(Br)c2C)c(C)c1C	-3.9	15.8	4.3	2.0	/	i	/	-3.2
Cc1cccc(C)c1NC(=O)COC(=O)c1cc[n+]([O-])cc1	/	-2.2	5.3	2.8	-3.9	i	-21.0	/
Cn1nnnc1SCC(=O)Nc1cc(S(=O)(=O)N2CCCC2)ccc1Cl	-17.4	/	1.3	1.3	9.5	i	/	-3.5
Cc1ccc(C2OC(=O)c3ccccc32)cc1 (centres undefined)	-0.2	-3.8	-10.6	-3.9	-13.4	i	-1.7	-8.0
COc1cccc(CN(C)C(=O)/C=C/c2ccc(S(=O)(=O)N3CCCCCC3)cc2)c1	-3.6	/	2.6	-4.5	35.0	i	13.3	-13.3
Cc1onc(-c2ccccc2Cl)c1C(=O)N1CCc2ccccc2C1	1.2	-8.4	-0.6	-0.2	/	i	-12.2	-3.7
CCOC(=O)c1c(S(=O)(=O)N(C)Cc2ccccc2)c(C)n(C)c1C	4.0	9.6	-0.7	-3.3	-2.9	i	-1.5	-7.0
COc1ccc(OC)c(NC(=O)CSCc2cnn(-c3ccccc3)c2-n2cccc2)c1	-1.2	2.9	-3.3	-8.0	/	i	3.1	-3.5
C[C@H](CO)N1C[C@H](C)[C@@H](CN(C)C(=O)Nc2ccc(C(F)(F)F)cc2)Oc2c(NC(=O)NC3CCCCC3)cccc2C1=O	/	/	3.9	-2.3	8.5[16.7 µM]	/	1.2&-1.7	/
CCOc1cc(/C=N/NC(=O)c2c(C)nc3ccc(Cl)cn23)ccc1O	/	/	-1.0	-2.4	-16.8	/	-8.2	/
COc1cccc(S(=O)(=O)NCc2ccc(C(=O)NCC3CCCO3)cc2)c1 (centres undefined)	-0.8	-5.3	2.0	6.6	-85.0	i	1.7	-5.9
N#Cc1c(/N=C/c2ccc(-c3ccccc3C(=O)O)o2)sc2c1CCCC2	33.3	/	-1.2	1.6	10.1	i	5.1	20.2
CCc1nc2ccc(C(=O)N3CCN(S(=O)(=O)CC)CC3)cn2c1N(C)C(=O)c1cccc(OC)c1	/	/	-1.8	0.3	-4.3	/	-3.3	/
C=C(C)c1cccc(C(C)(C)NC(=O)Nc2ccc(Cl)cn2)c1	-6.0	-1.3	-4.4	-14.3	65.3*	i	/	0.3
COCCN(C(=O)COC(=O)/C=C/c1ccccc1Cl)c1c(N)n(Cc2ccccc2)c(=O)[nH]c1=O	/	-2.4	3.1	1.2	-78.3	i	-11.2	/
Cc1cccnc1NC(=O)CCn1c(=O)oc2ccccc21	8.2	/	-5.6	-2.9	0.5	i	-18.9	7.2
O=C(CC1NCCNC1=O)Nc1ccc(Oc2ccccc2)cc1 (centres undefined)	0.4	52.9	3.3	2.8	-54.7	i	-21.7	4.4
CCN1CCn2c1nc(N1CCOCC1)nc2=O	-3.7	-16.3	-1.5	1.2	/	i	-7.5	-0.3
COc1cc(C(=O)NCc2nnc(SCC(=O)N3CCOCC3)o2)cc(OC)c1OC	-14.2	-7.6	-1.0	2.2	36.9	i	/	4.5

Brought forward from above: six entries; new compounds follow.
SMILES	PABP FP inh	CSC inhib	MT1-MMP act inh	MT1-MMP act inh RFP	HIV Env fusion	Rce1 inh	UUG fidelity	eIF4H inh	others
C=C(C)c1cccc(C(C)(C)NC(=O)Nc2ccc(Cl)cn2)c1	-6.0	-1.3	-4.4	-14.3	65.3*	i	/	0.3
COCCN(C(=O)COC(=O)/C=C/c1ccccc1Cl)c1c(N)n(Cc2ccccc2)c(=O)[nH]c1=O	/	-2.4	3.1	1.2	-78.3	i	-11.2	/
Cc1cccnc1NC(=O)CCn1c(=O)oc2ccccc21	8.2	/	-5.6	-2.9	0.5	i	-18.9	7.2
O=C(CC1NCCNC1=O)Nc1ccc(Oc2ccccc2)cc1 (centres undefined)	0.4	52.9	3.3	2.8	-54.7	i	-21.7	4.4
CCN1CCn2c1nc(N1CCOCC1)nc2=O	-3.7	-16.3	-1.5	1.2	/	i	-7.5	-0.3
COc1cc(C(=O)NCc2nnc(SCC(=O)N3CCOCC3)o2)cc(OC)c1OC	-14.2	-7.6	-1.0	2.2	36.9	i	/	4.5
CN(CC(=O)Nc1c(Cl)cccc1Cl)C(=O)c1ccccc1SCC(=O)N1CCCC1	38.5	36.8	-0.9	-1.5	-4.2	i	-5.5	19.4
COc1ccc(NC(=O)Nc2nnc(C(C)(C)C)s2)cc1	16.3	-9.7	2.7	-2.6	-6.4	i	/	-2.6
CC(C)c1ccc(C(O)P(=O)(OCc2ccccc2)c2ccc(N(C)C)cc2)cc1 (centres undefined)	-4.0	9.1	-2.0	-9.3	10.1	i	-3.1	0.8
COC(=O)c1c(NC(=O)COC(=O)c2ccc(Cl)nc2)sc(C)c1C	/	-21.2	3.1	6.4	-0.1	i	-2.2	/
CC(=O)c1cccc(NC(=O)C(OC(=O)c2cccs2)c2ccccc2)c1 (centres undefined)	3.5	-12.2	0.8	1.6	19.7	i	/	0.6
CN(C)c1cccc(N(C)C)c1CNC(=O)NC(=O)c1c(F)cccc1F	-4.9	37.9	2.3	5.7	-19.2	i	16.9	2.3
O=[N+]([O-])C1=C(Nc2cccc3ccccc23)CS(=O)(=O)C1	17.7	-3.8	9.0	5.5	-12.8	i	-18.5	62.9	eIF4H inh retest=0.8;PABP FP inh retest=2.1
CCOC(=O)C(OC(=O)c1sc(=S)n(C)c1C)C(C)=O (centres undefined)	-7.3	-14.7	2.9	2.2	/	i	-27.3	0.1
CNc1c(NS(=O)(=O)c2ccc(F)cc2)c(=O)oc2ccccc12	4.4	-7.5	0.2	3.5	-2.7	i	-16.4	-4.0
CCN(CC)S(=O)(=O)c1ccc(=O)[nH]c1	-3.5	-3.3	-1.1	1.3	4.6	i	/	3.4
FCCCOc1ccc(-c2nccc(-c3ccc(Br)cc3)n2)cc1	1.1	/	4.6	0.7	/	i	-4.6	-1.5
CN1CCN(C(c2ccccc2)c2ccc(Cl)cc2)CC1 (centres undefined)	/	-0.4	-13.3	-5.8	28.3	/	-36.0	/
COCCN(C(=O)c1ccc(-c2ccc([N+](=O)[O-])cc2)o1)c1c(N)n(CC(C)C)c(=O)[nH]c1=O	/	/	2.9	1.5	-3.5	/	-11.1	/
O=C(CSc1nnc(-c2cnccn2)n1Cc1ccco1)c1ccccc1	8.1	-6.7	0.4	-0.5	12.1	i	-12.9	0.1
COC(=O)[C@@H](NC(=O)NCc1ccc(F)cc1)C(C)C	-3.2	-10.1	-3.9	3.0	/	i	-24.1	-0.2
Cc1cccc(-c2nc(CS(=O)CC(=O)N3CCN(C)CC3)c(C)o2)c1 (centres undefined)	6.0	/	0.8	-0.8	14.4	i	-5.8	-8.4
C=CCOC(=O)C1=C[C@@H](c2csc3ccccc23)C[C@@H](OCCCCO)O1	/	-10.3	0.6	3.4	-4.8	i	-11.9	/
CCc1cc(=O)oc2c3c(cc(OCC(=O)NCCN4CCOCC4)c12)OC(C)(C)CC3	-2.1	39.7	3.9	4.2	/	/	3.5	-3.3
CC(=O)Nc1ccc(-c2ccnc3c2CC(C(=O)Nc2cccc(N(C)C)c2)O3)cc1 (centres undefined)	/	/	6.3	-7.8	-2.9	/	-12.2	/
O=C(c1cccs1)[C@@H]1[C@@H]2C(=O)N(Cc3ccc4c(c3)OCO4)C(=O)[C@@H]2C2c3ccccc3C=CN21 (some centres undefined)	19.5	2.5	/	/	/	i	/	21.7
CC(=O)N1c2ccc(S(=O)(=O)N3CCCC(C(=O)N4CCCC(C)C4)C3)cc2CC1C (centres undefined)	6.7	2.5	-1.8	-4.1	15.0	i	0.9	-0.2
O=c1[nH][nH]c(C(F)(F)F)c1C=NCc1ccccc1Cl	1.6	-0.1	1.1	-4.4	/	i	12.4	7.7
O=C(N/N=C/c1cccc(C(F)(F)F)c1)c1cc2c(s1)-c1ccccc1CC2	-2.4	27.3	11.2	12.3	/	i	/	-6.7
CCOC(=O)C1CCN(C(=O)c2cc3cc(Cl)ccc3[nH]2)CC1	7.9	3.5	-3.5	0.7	-7.6	i	4.5	-2.8
CCOC(=O)C1=C(C)NC(=O)NC1c1ccc(-c2ccc(F)cc2)o1 (centres undefined)	-3.9	-3.9	-1.2	-0.1	37.0	i	/	32.3
Remaining list, next part:
SMILES	PABP FP inh	CSC inhib	MT1-MMP act inh	MT1-MMP act inh RFP	HIV Env fusion	Rce1 inh	UUG fidelity	eIF4H inh	others
CCOc1cc(/C=N/NC(=O)C(=O)NCC2CCCO2)ccc1OCC(=O)N1CCOCC1 (centres undefined)	0.7	-6.0	0.6	-3.4	1.2	i	1.0	6.2
CC(OC(=O)C1CC(O)CN1S(=O)(=O)c1ccccc1[N+](=O)[O-])C(=O)N1CCCCC1 (centres undefined)	-10.0	-9.9	2.3	2.9	0.1	i	-32.3	-8.8
CN(C)CCCNc1oc(/C=C/c2ccccc2)nc1C#N	-4.2	4.4	3.1	7.6	-7.2	?	/	-1.0
CC(=O)Nc1ccc(NC(=O)[C@@H](NC(=O)c2ccccc2F)C(C)C)cc1	7.7	1.4	0.3	2.4	1.8	i	-11.5	-6.3
O=C(NC(=S)Nc1ccccc1N1CCCC1)c1cccs1	4.6	12.1	-2.4	2.8	-20.0	i	-4.5	8.1
Cn1c(=O)c2c(nc(NCc3ccccc3)n2C)n(C)c1=O	10.4	-5.3	7.8	4.6	?	i	-6.9	-5.5
CC1(C(=O)NS(=O)(=O)C2CC2)CCCN(C(=O)c2ccc3c(c2)OCO3)C1 (centres undefined)	/	/	-1.1	0.5	-32.0	/	25.5	/
CN(C)C(=O)COC(=O)[C@H](Cc1ccccc1)NC(=O)c1ccco1	-2.0	-4.3	-1.3	0.9	-94.7	i	-10.8	-5.4
COc1ccc(CNC(=O)CCCn2c(SCC#N)nc3cc4c(cc3c2=O)OCO4)cc1	9.3	-19.2	-0.9	-2.1	0.9	/	-20.0	1.7
CCNC(=S)NNC(=O)c1ccc(=O)n(Cc2ccccc2)c1	2.2	-10.3	0.1	3.5	-11.5	i	-6.7	-2.3
